Compound activity: PubChem, several laboratories
MT1-MMP act inh: inhibitors of human MT1-MMP activation; GFP/RFP ratio change, % at 20 µM; HT1080 RFP-PRO-GFP cells, GFP/RFP ratio fluorescence, overnight; percent of plate control window, DMSO zero; hit rate 0.061% among 360,000; P50281;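 active = GFP/RFP ratio change of at least 30% with cell ATP level not reduced by more than half and red fluorescence within 50% of control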; also: strong numbers were not always called active
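Assay system: HT1080 RFP-PRO-GFP cells | Dosing: 20 µM single dose, 1% DMSO | Incubation: Cells overnight before dosing, compound overnight, 37 °C, 5% CO2 | Evaluation: GFP/RFP fluorescence ratio | Control set: DMSO-only wells and HT1080 RFP-L50D-GFP cell wells as references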
Rce1 inh: yeast Ras-converting enzyme inhibition; AID 2563; yeast membranes, quenched prenylated peptide cleavage fluorescence; hit rate 0.27% among 290,000; calls only; Q03530;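 active = fall in fluorescence gain of 50% or more versus controls, with final raw signal at or below 3038400; inconclusive = same 50% fall but final raw signal above 3038400; inactive = fall in fluorescence gain under 50%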;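 also: plate controls were neutral control wells for no effect and wells lacking membranes for full effect; tested at 10 µM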
CSC inhib: cancer stem cell inhibition. cancer stem cell-like cells viability, luminescence. inhibition, % at 7.5 µM. hit rate 1.1% among 300,000. AID 2717;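 active = mean at 75% or more and at least half the replicates too; inconclusive = mean and replicates disagree; tested in HMLE shEcad cells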;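 also: 0% = median of negative and 100% = median of positive control wells; the first replicate is given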
UUG fidelity: yeast start codon fidelity modulation. AID 602363. S. cerevisiae UUG-firefly luciferase reporter, luminescence/redox ratio. hit rate 0.13% among 350,000. activity score, % at 18.7 µM;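 active = replicate mean at a twofold rise or more, about +100% in these data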;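 also: firefly luciferase made from a UUG start codon reports start codon fidelity; reporter light over untreated wells divided by growth signal over untreated wells; some hits fall short of that in this replicate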
Env fusion inh: inhibitors of HIV Env-mediated cell fusion | hit rate 1.1% among 360,000 | inhibition, % at 12.3 µM | HeLa-JRFL Env/CEM21 cell fusion, luciferase;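 active = mean replicate inhibition score of at least 50 and every replicate individually at or above 50; inconclusive = only one of the two criteria met; inactive = mean below 50 and not all replicates reaching 50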;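 also: 0% = plate neutral controls and 100% = maraviroc near 300 nM; one replicate is shown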
eIF4H inh: inhibitors of RNA binding by human eIF4H. eIF4H fluorescence polarization binding assay. inhibition, % at 35 µM. hit rate 0.94% among 290,000;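 active = 50% or more with normal probe brightness, or confirmed in later tests; inconclusive = above 50% with abnormal brightness, or retests that disagree; inactive = below 50% or failed in later tests; about a fifth of its hits are not listed in these tables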;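 also: calls also rest on retests at 20 µM and on dose response follow-up; 0% = protein and probe with vehicle and 100% = probe without protein; strong numbers were not always called active; many hits fall short of the cut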
PABP FP inh: blocks human PABP binding to poly(A) RNA; fluorescence polarization; hit rate 1% among 290,000; inhibition, % at 35 µM; P11940;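 active = 50% or more with normal probe brightness, or confirmed in later tests; inconclusive = above 50% with abnormal brightness, or retests that disagree; inactive = below 50% or failed in later tests; about a fifth of its hits are not listed in these tables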;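 also: calls also rest on retests at 20 µM and on dose response follow-up; controls were probe without protein and protein plus probe with vehicle; some compounds called inactive have numbers as strong as hits; many hits fall short of the cut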
Target sequence (P11940 whole entry, looked up): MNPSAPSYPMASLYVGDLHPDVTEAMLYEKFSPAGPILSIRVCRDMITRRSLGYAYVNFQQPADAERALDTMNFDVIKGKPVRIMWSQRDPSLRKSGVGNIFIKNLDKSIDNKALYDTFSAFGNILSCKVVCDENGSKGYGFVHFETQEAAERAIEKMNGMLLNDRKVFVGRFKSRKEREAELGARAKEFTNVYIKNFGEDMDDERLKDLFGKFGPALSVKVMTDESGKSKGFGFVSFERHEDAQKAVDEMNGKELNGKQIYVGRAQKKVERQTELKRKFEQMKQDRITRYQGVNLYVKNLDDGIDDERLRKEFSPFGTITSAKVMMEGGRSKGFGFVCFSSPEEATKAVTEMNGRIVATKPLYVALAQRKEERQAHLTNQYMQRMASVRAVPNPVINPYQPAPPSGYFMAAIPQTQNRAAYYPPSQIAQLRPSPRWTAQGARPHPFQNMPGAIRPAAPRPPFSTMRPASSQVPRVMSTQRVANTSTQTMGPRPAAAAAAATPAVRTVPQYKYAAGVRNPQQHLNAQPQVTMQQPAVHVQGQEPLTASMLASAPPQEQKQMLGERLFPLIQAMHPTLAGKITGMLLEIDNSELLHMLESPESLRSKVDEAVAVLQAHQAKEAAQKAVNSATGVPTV
eIF4H inh retest: further read-out of eIF4H inh, marked with its call; inhibition, %; compound at 20 µM; confirmation average;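 mean of two retest wells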
PABP FP inh retest: further read-out of PABP FP inh, marked with its call; inhibition, %; compound at 20 µM; confirmation repeats;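 mean of two retest wells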
MT1-MMP act inh RFP: further read-out of MT1-MMP act inh, marked with its call; RFP signal change, %; measured here: RFP expression control read;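 0 = vehicle wells; hits needed this value within 50% of zero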
Numbers without * were called inactive; i = inactive; ? = inconclusive; . = not tested or not shown; & = joins results of further samples. The list is partial (hit frequency here may not be typical).

SMILES	MT1-MMP act inh	MT1-MMP act inh RFP	Rce1 inh	CSC inhib	UUG fidelity	Env fusion inh	eIF4H inh	PABP FP inh	others
CCCN1C(=O)c2cc(C(=O)Nc3ccc(OC)cc3OC)ccc2C1Nc1ccc(OC)cc1OC (configuration not stated)	3	0	i	-10	.	12	1	-7
O=C(NCc1n[nH]c(=O)c2ccccc12)C1CC(=O)N(c2ccc(Cl)cc2)C1 (configuration not stated)	1	0	i	-17	-1	-10	.	.
Cn1cc(CN2CCC(C(O)CCc3ccccc3)CC2)c(-c2ccccc2F)n1 (configuration not stated)	-1	3	i	1	.	4	-8	-10
CN(C)CCN1CCc2ccccc21	1	6	i	-9	10	-66	1	22
CCn1cc(Br)c(C(=O)Nc2sc3c(c2C(N)=O)CCCC3)n1	2	3	i	8	-10	.	3	10
CC(C)(C)N=C(NS(=O)(=O)c1cccs1)c1ccccc1	0	1	i	.	-1	17	4	-11
COc1ccnc(Nc2cccc(C)c2)c1C#N	0	1	i	-4	-8	.	-7	-2
Cc1ccc(S(=O)(=O)NCc2ccc(C(=O)NC3CCCCC3)cc2)cc1	0	-5	i	-11	-12	5	-8	4
Cc1cccc(CN2CCN(CC(=O)NCCCN3CCCC3=O)C2=O)c1	3	-1	i	1	0	.	-7	-5
CCc1ccc2[nH]cc(C(=O)N3CCCCCC3)c(=O)c2c1	1	8	i	-19	-13	-4	-4	-9
CCOC(=O)C(NC(C)=O)(NS(=O)(=O)c1ccccc1)C(F)(F)F (configuration not stated)	6	4	i	10	-16	-3	-7	-13
CCOC(=O)CCCNC(=O)COC(=O)CCC(=O)c1ccc(F)cc1	3	6	i	.	0	-64	4	-4
COc1ccc(/C=N/Nc2nncc3ccccc23)cc1	-1	3	i	28	-27	-52	2	4
C=CCNC(=O)c1ccccc1S(=O)c1ccccc1C#N (configuration not stated)	2	10	i	-8	-9	.	0	-3
Cn1c(N2CCOCC2)c(C=O)c2ccccc21	0	-3	i	-5	-15	-6	-8	-11
CC(=O)N1CC(=O)N=C1SCC(=O)Nc1nc(-c2ccccc2)c(-c2ccccc2)s1	-16	-4	i	33	.	-17	2	16
Cc1c(CCO)sc[n+]1CC(=O)OC12CC3CC(CC(C3)C1)C2	-1	0	i	15	-6	19	-6	0
COc1ccccc1N1CCN(C(=O)CCNS(=O)(=O)c2ccc3c(c2)CCC(=O)N3)CC1	4	1	i	-10	2	?	-1	-8
O=CC(=O)c1ccccc1	1	8	.	-1	-16	.	.	.
COCCNCC(=O)N1c2ccccc2Sc2ccccc21	-4	-1	i	-9	-13	0	-1	6
Cc1ccc(C)c(C(=O)CSc2nc(N)cc(=O)[nH]2)c1	2	-6	i	-15	-7	16	-4	-13
CCN1CCCC(NC(=O)c2cc([N+](=O)[O-])ccc2OC)C1 (configuration not stated)	-4	8	i	-9	-2	0	1	1
COc1cccc2c1OCC/C2=N\NC(=O)COc1ccc(C)cc1	4	4	i	-1	-7	9	1	-3
COCCNC(=O)COc1ccc(Oc2ccccc2)cc1	11	3	i	3	-10	4	1	-6
Cc1ccc(C(=O)N2CCN(c3ncccn3)CC2)cc1	-5	1	i	-5	-1	-1	10	-6
O=C(CSc1ccc2ccccc2c1)Nc1ccc(S(=O)(=O)Nc2nccs2)cc1	3	9	i	-3	16	4	19	-5
Cc1cccc2[nH]c3c(=O)n(CCN4CCNCC4)cnc3c12	0	8	i	-6	-7	.	-2	1
Cc1ccc(-c2[nH]ncc2/C=N/n2c(COc3ccccc3C)nc3ccccc3c2=O)cc1	-1	-4	i	-8	-3	1	-6	-3
Cc1c(NC(=O)C2CCCCC2)cc(C(=O)N2CCOCC2)cc1[N+](=O)[O-]	1	0	i	-1	.	-3	9	-2
Cn1c(=O)c2c(ncn2CC(=O)Nc2ccccc2Sc2ccccc2)n(C)c1=O	2	-6	i	12	3	13	-7	3
CC1(C)Cc2c(c(-c3ccco3)nc3sc4c(NCC5CCCO5)ncnc4c23)CO1 (configuration not stated)	-6	1	i	38	.	.	-13	21
CCNc1nc(NCC)n2c(SC(C(=O)Nc3cc(C)ccc3OC)c3ccccc3)nnc2n1 (configuration not stated)	1	0	i	-1	-4	-21	-5	-8
COc1ccc(C(=O)COC(=O)c2cccnc2Cl)c(OC)c1	5	2	i	-11	.	-30	59*	2	eIF4H inh retest=69*;PABP FP inh retest=43
CSCCC(NC(=O)c1ccccc1Br)C(=O)NCC(C)(C)N1CCOCC1 (configuration not stated)	2	2	i	-14	-16	.	.	.
Cn1ccs/c1=N\S(=O)(=O)c1ccc(C(C)(C)C)cc1	-1	-1	i	9	-12	4	-2	-6
O=C(NC1CCCCC1)c1ccc(S(=O)(=O)N2CCCC2)cc1	9	4	i	-5	-4	-80	-4	-10
CC(C)N(CC#CCC(O)(c1ccccc1)c1ccccc1)C(C)C	-2	2	i	4	-2	-1	4	-14
CCOc1ccc(CCNS(=O)(=O)c2ccc3c(c2)oc(=O)n3C)cc1OCC	2	2	i	-3	-3	-2	3	1
O=C(C[n+]1cc(Br)cc2ccccc21)c1ccc(Br)cc1	-19	2	i	-16	-26	18	81	23*	eIF4H inh retest=4;PABP FP inh retest=82*
CC(/C=N/NC(=O)c1ccccc1C)=C\c1ccccc1	2	-1	i	.	5	-5	.	.
COc1ccc(C(=O)NNC(=O)CCC(=O)Nc2cc(C)on2)cc1	1	4	i	-10	.	16	-7	2
COc1cc(/C=N/NC(=O)c2cc(-c3cccc(Br)c3)nc3ccccc23)cc(OC)c1O	3	-7	i	19	.	9	.	.
O=C(N[C@@H](Cc1ccccc1)c1nc2ccccc2[nH]1)c1cc([N+](=O)[O-])ccc1Cl	-1	-2	i	11	-21	12	-6	-3
Cc1ccc(C)c(-n2nnnc2Sc2nc([N+](=O)[O-])nn2C)c1	7	4	i	3	-4	8	0	11
CCC(C)NS(=O)(=O)c1ccc(NC(=O)c2ccc([N+](=O)[O-])cc2Cl)cc1 (configuration not stated)	3	7	i	13	.	-10	-5	6
COc1ccc(S(=O)(=O)N(C)C[C@H]2Oc3c(NC(=O)c4ccncc4)cccc3C(=O)N([C@H](C)CO)C[C@@H]2C)cc1	-1	4	.	.	-10&-4	16	.	.
CC1CN(C2CCN(C(=O)COc3ccc(Cl)cc3)CC2)CC(C)O1 (configuration not stated)	0	3	i	-10	.	.	-5	25
COc1cccc(CN(C)C(=O)C(Cc2ccccc2)NC(=O)c2ccccc2)c1OC (configuration not stated)	-7	-7	i	-8	.	-10	.	.
O=C(OCC(=O)N1CCN(c2ccccc2)CC1)c1ccc2ncsc2c1	1	1	.	-14	-16	-15	5	14
Clc1ccc(CN2CC[C@H]3C=CCc4cccc(c43)C2)cc1	3	-1	.	25	-15	5	.	.
CC(C)=CC(=O)N1CC[C@@H](N2CCN(c3ccccc3F)CC2)[C@H](O)C1	-2	0	i	-4	7	0	5	2
OCc1ccccc1CNCc1ccccc1	-1	0	i	0	-18	.	-2	10
COc1ccc(C(C)=O)cc1COC(=O)Cc1n[nH]c(=O)c2ccccc12	2	-6	i	1	-8	-2	-14	-4
CC1(C(O)(C#CC[N+]2(C)CCCCC2)c2ccccc2)CCCC1 (configuration not stated)	-1	3	i	2	.	3	7	70*
Cc1ccc(C(c2nnnn2CCc2ccccc2)N2CCC(C)CC2)cc1 (configuration not stated)	-24	-30	i	.	2	.	-8	0
COC(=O)c1ccc(COC(=O)CCNS(=O)(=O)c2ccc(C)c(C)c2)cc1	1	4	.	.	20	-8	.	.
Cc1[nH]nc(SCC(=O)NC(C)c2ccccc2)c1[N+](=O)[O-] (configuration not stated)	0	7	i	-2	.	.	-9	-12
CCCS(=O)(=O)NC(=O)C1(C)CCN(C(=O)c2cc(F)ccc2C)C1 (configuration not stated)	0	1	.	.	-17	27	.	.
CC(=O)c1c(C)oc2ccc(N(C(C)=O)S(=O)(=O)c3ccc(Cl)c([N+](=O)[O-])c3)cc12	6	2	i	35	1	.	0	7
CC(=O)c1cc(-c2ccccc2)n(CC(=O)N2CCCC2)c1C	6	7	i	-8	.	23	2	5

Structural class, those above containing bromine
SMILES	MT1-MMP act inh	MT1-MMP act inh RFP	Rce1 inh	CSC inhib	UUG fidelity	Env fusion inh	eIF4H inh	PABP FP inh	others
CCn1cc(Br)c(C(=O)Nc2sc3c(c2C(N)=O)CCCC3)n1	2	3	i	8	-10	.	3	10
CSCCC(NC(=O)c1ccccc1Br)C(=O)NCC(C)(C)N1CCOCC1 (configuration not stated)	2	2	i	-14	-16	.	.	.
O=C(C[n+]1cc(Br)cc2ccccc21)c1ccc(Br)cc1	-19	2	i	-16	-26	18	81	23*	eIF4H inh retest=4;PABP FP inh retest=82*
COc1cc(/C=N/NC(=O)c2cc(-c3cccc(Br)c3)nc3ccccc23)cc(OC)c1O	3	-7	i	19	.	9	.	.

Continuation:
SMILES	MT1-MMP act inh	MT1-MMP act inh RFP	Rce1 inh	CSC inhib	UUG fidelity	Env fusion inh	eIF4H inh	PABP FP inh	others
Cc1c(C)n(C(=O)CSc2nc3ccccc3[nH]2)c2ccccc12	3	3	i	0	3	-9	68*	52*
C=CC[C@@H](CC(=O)OC(C)(C)C)C(=O)OC[C@H]1CCCN1C(=O)[C@@H](CC=C)CC(=O)N[C@H](CO)Cc1ccccc1	5	-2	.	.	21	-14	.	.
O=C(O)C1C2CCC(O2)C1C(=O)Nc1cccc(Cl)c1 (configuration not stated)	8	4	i	-12	0	-54	-2	-1
CCCCN1CCNC[C@@H]1Cc1ccc(O)cc1	-7	2	i	0	-1	-9	.	.
O=C1C=C(c2ccccc2)CC(c2ccc(F)cc2)C1 (configuration not stated)	7	3	i	11	-2	-27	.	.
COc1ccc(/C=C2/C(=O)N(c3c(F)c(F)c(F)c(F)c3F)N=C2C)cc1	-2	-2	i	-9	-41	-6	-2	25
O=S(=O)(Nc1ccc(-n2cnnn2)cc1)c1ccc(F)c(F)c1F	-4	3	i	-8	-5	-8	1	-1
O=C(O)C1C2CC2CN1C(=O)c1ccc(Cl)cc1Cl (configuration not stated)	1	1	i	.	.	18	0	5
COc1cccc(CC(=O)Nc2ccccc2C(=O)N2CCOCC2)c1	-1	1	i	1	.	.	-4	-5
COc1cc(NC(=S)NCCCN(C)C)c(OC)cc1NC(=O)c1ccco1	2	5	i	-16	-9	-6	5	11
CCOC(=O)C1=C(O)CSC1=Nc1ccc(C)cc1	-2	3	i	-2	-15	-11	-6	6
COc1cccc(N2C(=O)[C@H]3C(C(=O)c4cnccn4)=NN[C@H]3C2=O)c1	-3	-1	i	-4	-7	12	24	29
COc1cccc(NC(=O)CC2(CC(=O)O)CCCC2)c1	-5	-5	.	7	-12	-39	1	4
O=C(O)CCCC(=O)NCc1c(Cl)cccc1Sc1ccc(Cl)cc1	0	0	i	-3	-21	-2	-4	3
CCc1cccc(NS(=O)(=O)c2c(C)[nH]c(=O)[nH]c2=O)c1	2	3	i	-5	-4	-3	-8	-3
CC1CCN(S(=O)(=O)c2cccc(C(=O)NC3CCCCC3)c2)CC1	3	-6	i	9	-12	-2	-12	-3
CCOC(=O)C1=C(C)NC(=O)NC1c1ccc(N(C)C)cc1 (configuration not stated)	1	3	i	.	4	2	-4	-3
